Bioassay records (PubChem)
Sa helicase inh: blocks Staphylococcus aureus DNA helicase | purified S. aureus helicase, fluorescence unwinding assay; about half of the hits fall short of the stated cut | inhibition, %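 (tested at about 80 µM)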 | 120,000 tested, 0.05% active;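 active means both duplicates at 50% or more, or one of them with a favoured structure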;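 further: 0% = mean of negative control wells and 100% = mean of positive control wells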
MgrA-DNA mod: alters Staphylococcus aureus MgrA binding to DNA. fluorescence polarization. inhibition, %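 (about 10 µg/mL by stock and volumes)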. 84,000 tested, 0.13% active;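 active means above 50% in either of two replicates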;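 further: 0% = protein plus DNA without compound and 100% = DNA alone without protein; higher means less MgrA bound to DNA so lower polarization; one replicate is shown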
Starred values were filed as active, the others as inactive; · = no result given; & = joins results of further samples. This is a subset; rates above refer to the full screens.

Sa helicase inh	MgrA-DNA mod	mol
-1.0	·	COc1cccc(CN(C)C(=O)/C=C/c2ccco2)c1OC
19.0	·	C/C(=N/O)c1ccc(N2C(=O)C3C4C=CC(C4)C3C2=O)cc1 (stereo unspecified)
-9.0	·	CCN(CC)S(=O)(=O)c1ccc(N2CCCC2)c(C(=O)OCC(=O)c2cccs2)c1
1.0	1.0	Cc1ccc(C(=O)COC(=O)C2C3C=CC(C3)C2C(=O)OCC(=O)c2ccc(C)c(C)c2)cc1C (stereo unspecified)
1.0	·	CCCCn1nc(C(N)=O)c2ccccc2c1=O
-4.0	-1.4	O=c1[nH]c2ccccc2cc1CN(CC1CCCO1)S(=O)(=O)c1ccccc1 (stereo unspecified)
20.0	·	O=C1COc2cc(O)ccc21
7.0	4.6	O=C(Nc1ccccc1C(=O)O)c1ccccc1Cl
-8.0	-1.8	CC1=CC(C)C(C2OCC(CN3CCCCC3)O2)C(C)C1 (stereo unspecified)
7.0	-0.8	CCOC(=O)c1c(/N=C/c2c(O)ccc3ccccc23)sc2c1CCC2
-4.0	·	CCCC(C(=O)Nc1ccc2c(c1)OCO2)c1ccccc1 (stereo unspecified)
-9.0	·	O=C(COc1ccc2ccc(=O)oc2c1)NC1CCCCC1

Among those listed so far, these contain a carbonyl joined to an NH by a bond outside any ring:
Sa helicase inh	MgrA-DNA mod	mol
1.0	·	CCCCn1nc(C(N)=O)c2ccccc2c1=O
7.0	4.6	O=C(Nc1ccccc1C(=O)O)c1ccccc1Cl
-4.0	·	CCCC(C(=O)Nc1ccc2c(c1)OCO2)c1ccccc1 (stereo unspecified)
-9.0	·	O=C(COc1ccc2ccc(=O)oc2c1)NC1CCCCC1

(more compounds)
Sa helicase inh	MgrA-DNA mod	mol
12.0	·	CC(=O)NC1=NC(=O)C(CC(=O)O)S1 (stereo unspecified)
14.0	·	CC(=O)NCC1OCCc2ccccc21 (stereo unspecified)
15.0	6.2	O=C1C=C(Nc2ccc(F)c(C(F)(F)F)c2)c2ccccc2C1=O
9.0	·	CC(=O)Nc1ccc(SCC(=O)N(C)Cc2ccco2)cc1
2.0	-1.1	COc1cccc(N(C(=O)C(F)(F)F)C(C(=O)NC2CCCC2)c2cccs2)c1 (stereo unspecified)
-7.0	·	COc1ccc(N=C2SCC(=O)N2c2ccc(OC)cc2)cc1
4.0	·	COC(=O)CNC(=O)CC12CC3CC(CC(C3)C1)C2
13.0	·	Cc1ccc2[nH]c(=O)c(CC(=O)O)c(-c3ccccc3)c2c1
5.0	-1.1	N#Cc1ccccc1NC(=O)COC(=O)CC1CC2CCC1C2 (stereo unspecified)
28.0	·	Cc1cc(NNC(=O)c2ccccc2O)c2cccc(C)c2n1
6.0	·	Cc1ccc2nc(NNC(=O)c3ccccc3)sc2c1
30.0	2.2	CC1CCCN(CCCNC(=O)c2coc3nc4ccccc4nc23)C1 (stereo unspecified)

Sa helicase inh	MgrA-DNA mod	mol
·	-2.3	Nc1ccc(N2CCOCC2)c(Cl)c1
·	-1.5	CS(=O)(=O)c1cc(C(F)(F)F)cc(S(C)(=O)=O)c1S(C)(=O)=O
·	-1.6	Cc1onc(-c2c(Cl)cccc2Cl)c1C(=O)NNc1ccccc1
12.0	0.2	CN(Cc1ccccc1)S(=O)(=O)c1cccc2cccnc12
-4.0	·	CCCNC(=O)C1CNc2ccccc2O1 (stereo unspecified)
19.0	·	Cc1oc(-c2ccccc2)nc1CSc1nc2c(c(=O)[nH]1)CCC2
6.0	2.0	O=c1[nH]c(CN2CCCCC2)nc2c1oc1ccccc12
-7.0	·	Cc1cc(C)n2nc(C(=O)OCc3ncc(-c4ccccc4)o3)nc2n1
34.0	·	N#CCCN1CCN(S(=O)(=O)c2ccc(S(=O)(=O)N3CCCC3)cc2)CC1
13.0	-0.9	COc1ccc(CN2C3CCCC2CC(NC(=O)NC2CCCCC2)C3)cc1 (stereo unspecified)
·	-0.9	CCOC(=O)CNC(=O)c1c(OC)cccc1OC
-15.0	·	CCc1cccc(-n2nnc(S(=O)(=O)c3ccccc3)c2C)c1

Sa helicase inh	MgrA-DNA mod	mol
11.0	·	Cc1cc2nc(C)c(CCC(=O)O)c(C)n2n1
6.0	-0.7	NC(=O)c1cccc(S(=O)(=O)N2CCOCC2)c1
12.0	4.2	COc1ccc(-n2nc3c(c2NC(=O)c2ccccc2C(F)(F)F)CSC3)cc1
-5.0	·	O=C(c1ccccc1)c1ccc(OC(=O)c2ccc(Br)o2)cc1
12.0	·	O=C(Nc1ccc2oc3ccccc3c2c1)c1ccc2nc[nH]c2c1
-8.0	·	O=C1CSc2ccc(C(=O)OCC(=O)N3CCCc4ccccc43)cc2N1
·	-0.6	O=C(Nc1nnc(C(F)(F)F)s1)c1c(F)cccc1F
·	-0.1	O=C(c1ccccc1)C1CCN(S(=O)(=O)c2ccc(Cl)cc2)CC1
-1.0	·	CCn1c(=O)c(C(=O)CN2CCCCC2)c(N)n(Cc2ccccc2)c1=O
-20.0	·	CNc1ccccc1C(=O)OCC(=O)c1c[nH]c2ccccc12
0.0	0.4	CCCN(C(=O)C(C)C)c1nnc(-c2cc(OC)c(OC)c(OC)c2)s1
·	0.4	CC(=O)NC1=NN(C(C)=O)C(c2cccc3ccccc23)N1C(C)=O (stereo unspecified)

Sa helicase inh	MgrA-DNA mod	mol
-6.0	·	Cc1cccn2c(=O)cc(CN3CCN(c4cnn(-c5ccccc5)c(=O)c4Cl)CC3)nc12
2.0	·	CC(Oc1ccc(Cl)cc1)C(=O)NCCCn1ccnc1 (stereo unspecified)
4.0	·	S=C(NCc1ccc2c(c1)OCO2)N1CCN(c2ccccn2)CC1
-12.0	·	CCN1CCCC1CNC(=O)c1ccccc1Sc1ccccc1C#N (stereo unspecified)
·	-1.1	Cc1ccc(-c2cc(C(N)=O)c3cc(F)ccc3n2)cc1
22.0	·	COCCn1c(COc2ccccc2)nc2ccccc21
·	-0.5	COC(=O)C1=C(C)NC2=C(C(=O)CC(c3ccc4c(c3)OCO4)C2)C1c1ccc(Br)cc1 (stereo unspecified)
·	-2.0	CC1=NN(c2ccc(-c3csnn3)cc2)C(=O)C1
14.0	·	CC(C)CCN(Cc1ccco1)S(=O)(=O)c1csc(C(N)=O)c1
29.0	·	Cc1cc(NC2CCCCC2)n2ncnc2n1
22.0	·	CC1(C)Cc2nc3sc(C(=O)NCCO)c(N)c3cc2CS1
-1.0	·	NC(=S)NCC1CCCO1 (stereo unspecified)

Sa helicase inh	MgrA-DNA mod	mol
-15.0	·	Cc1cc(C)c(C#N)c(SCC(=O)N(c2ccccc2)C2CCS(=O)(=O)C2)n1 (stereo unspecified)
9.0	0.0	Cc1ccc2nc(C)n3c4ccccc4c(NC=O)c3c2c1
1.0	1.3	O=C(CC1c2ccccc2Oc2ccccc21)NCCOc1ccccc1Cl
8.0	-6.8	CCN(CC)S(=O)(=O)c1ccc(-c2csc(Nc3cccc(OC)c3)n2)cc1
9.0	-0.4	CC1=C(C(=O)NCc2ccco2)C2(CCCCC2)OC1=O
·	0.2	CNCCCC1c2ccccc2C=Cc2ccccc21
10.0	3.2	O=C1CC(c2nc3ccccc3[nH]2)CN1c1cccc2ccccc12 (stereo unspecified)
-9.0	·	CC(Sc1nnc(Nc2ccc(C(C)C)cc2)s1)C(N)=O (stereo unspecified)
12.0	92.6*	O=C(/C=C/Nc1ccccc1C(F)(F)F)c1ccco1
-12.0	·	CCOc1ccccc1C1C(C#N)=C(SC)NC(=O)C1C#N (stereo unspecified)
-6.0	·	COC(=O)C1C(c2ccc(N(C)C)cc2)C(C(=O)OC)S(=O)(=O)CS1(=O)=O (stereo unspecified)
6.0	·	COCCNC(=O)Cc1c(C)nc2c(-c3ccccc3)c(C)nn2c1C

Quoted at random: seven records from the list
Sa helicase inh	MgrA-DNA mod	mol
-6.0	·	COC(=O)C1C(c2ccc(N(C)C)cc2)C(C(=O)OC)S(=O)(=O)CS1(=O)=O (stereo unspecified)
-12.0	·	CCOc1ccccc1C1C(C#N)=C(SC)NC(=O)C1C#N (stereo unspecified)
·	0.2	CNCCCC1c2ccccc2C=Cc2ccccc21
12.0	92.6*	O=C(/C=C/Nc1ccccc1C(F)(F)F)c1ccco1
9.0	0.0	Cc1ccc2nc(C)n3c4ccccc4c(NC=O)c3c2c1
-9.0	·	CC(Sc1nnc(Nc2ccc(C(C)C)cc2)s1)C(N)=O (stereo unspecified)
9.0	-0.4	CC1=C(C(=O)NCc2ccco2)C2(CCCCC2)OC1=O

(further entries)
Sa helicase inh	MgrA-DNA mod	mol
·	2.6	Cc1ccc(C(=O)CC(Sc2ccccc2N)c2ccsc2)cc1 (stereo unspecified)
·	-1.4	O=C(CSc1cccs1)Nc1ccc(F)c(Cl)c1
17.0	·	CO/N=C(\C(=O)O)c1csc(N)n1
·	-2.9	COC(=O)CSc1cc(C)c(Cl)cc1Cl
13.0	2.4	CC1=CCCC(C)(C)C1/C=C/C(C)=N/O (stereo unspecified)
-1.0	0.6	CCCNC(=O)Cn1c(=O)c2cccn2c2ccccc21
0.0	-0.5	C=CCNS(=O)(=O)c1ccccc1C(F)(F)F
-1.0	-0.2	N#Cc1ccc(COC(=O)CNC(=O)c2ccccc2)cc1
15.0	-1.1	O=C(NCC1OCCc2ccccc21)c1ccccc1 (stereo unspecified)
14.0	-3.5	Cc1cc(=O)oc2cc(OCC(=O)N3CCc4ccccc4C3)ccc12
0.0	-0.1	CC(C)NC(=O)C1CCN(c2ccc(S(=O)(=O)N3CCOCC3)cc2Cl)CC1
·	9.9	O=C1/C(=C/c2cccc3ccccc23)Nc2ccccc21

Sa helicase inh	MgrA-DNA mod	mol
7.0	·	Cc1cc2ncn(C(=O)N(C)C)c2cc1C
0.0	-4.2	N#Cc1ccc(C(=O)OCC(=O)NC23CC4CC(CC(C4)C2)C3)cc1
1.0	·	CCOC(=O)Cc1csc(SCC(=O)C(C#N)c2nc(C)cs2)n1 (stereo unspecified)
-4.0	3.1	CCCOP(=O)(c1ccccc1)c1ccccc1
-26.0	·	CCOC(=O)C1CCN(Cc2ccccc2)CC1=O (stereo unspecified)
0.0	-2.3	CCOC(=O)Cc1c(C)nc2nc(N)[nH]n2c1=O
-12.0	·	CC(C)NC(=O)CCCN1C(=O)C(c2ccccc2)Oc2cccnc21 (stereo unspecified)
-6.0	-4.7	Cc1cc(C)n(CCSCC(=O)O)n1
-9.0	·	Cn1[nH]c(CP(=O)(c2ccccc2)c2ccccc2)cc1=O
10.0	-1.6	Cc1ccc(C(=O)CSc2nnc(-c3cccs3)n2C)o1
·	-5.0	Cc1cc(NS(=O)(=O)c2cccs2)n[nH]1
29.0	·	Cc1c(NC2=NC3(CCCCC3)Cc3ccccc32)c(=O)n(-c2ccccc2)n1C

Sa helicase inh	MgrA-DNA mod	mol
-7.0	3.1	CCN(CC)CCN1C(=O)C(=O)/C(=C(/O)c2cnn(-c3ccccc3)c2C)C1c1cccs1 (stereo unspecified)
-23.0	·	COC(=O)C1=C(C)N(Cc2ccco2)C(=O)/C1=C\c1cc(C)n(-c2ccc(OC)c(Cl)c2)c1C
-2.0	·	COc1ccc(CNC(=O)CN2CCNC(=O)C2)cc1OC
·	-0.7	NS(=O)(=O)c1ccc(NC(=O)C(F)(F)F)cc1
5.0	-0.1	COc1ccc(C(=O)O)cc1Nc1nc2ccccc2n2c(C)nnc12
16.0	3.6	COc1ccc(NC(=O)CSc2nc3c(oc4ccccc43)c(=O)n2C)cc1OC
12.0	-1.4	COc1ccc(C)c2c1CCCC2=O
-23.0	0.2	O=C(CSC1CCCCC1)N1CCCC1
5.0	0.9	CCN(CC)S(=O)(=O)c1cc2c3c(c1)c(C)cc(=O)n3CCC2
10.0	·	O=C(O)C1C2C=CC(C2)C1C(=O)N1CCC(Cc2ccccc2)CC1 (stereo unspecified)
-17.0	·	CN(C)CCN(Cc1ccccc1)C(=O)c1cc2ccc3cccnc3c2[nH]1
·	-0.3	O=C(NC1CCCCNC1=O)c1ccc(N2CCOCC2)nc1 (stereo unspecified)

Sa helicase inh	MgrA-DNA mod	mol
7.0	-1.7	Cc1cc(C)cc(N=Cc2cccc(OCc3ccccc3)c2)c1
·	0.5	Cc1cccc(N(C)C(=O)c2cnccc2C(F)(F)F)c1C
5.0	2.8	CCC(=O)Nc1ccc(C(=O)CSc2ncc(C#N)c(N)n2)cc1OC
15.0	·	COc1ccc(CCNc2ncnc3sc(C)c(C)c23)cc1OC
26.0	·	O=C(O)c1ccccc1NC(=O)c1cc2ccccc2oc1=O
·	-0.2	CCOc1ccc(-c2csc(-c3cc4cc(Br)ccc4oc3=O)n2)cc1
4.0	·	CCOC(=O)NC(=O)Cn1c(=O)cnc2ccccc21
·	-3.4	Cc1c(C(N)=O)nnc2cc(-c3ccccc3)nn12
·	-0.4	O=C(Nc1ccc2nc(NC(=O)c3ccc([N+](=O)[O-])cc3)sc2c1)c1ccc([N+](=O)[O-])cc1
27.0	4.7	CCNC(=S)/N=C(\N)Nc1nc(C)c2cc(C)ccc2n1
0.0	·	CCn1c(O)c(/C=N/c2ncn[nH]2)c(=O)n(CC)c1=S
1.0	1.7	CC1CCN(C(=O)c2cc3nc(-c4ccco4)cc(C(F)(F)F)n3n2)C(C)C1 (stereo unspecified)

Sa helicase inh	MgrA-DNA mod	mol
·	0.8	Nc1ncc(C(=O)OCc2ccc(Cl)cc2)c(C(F)(F)F)n1
13.0	·	O=C(CSc1cccc[n+]1[O-])NC(=O)NC1CCCC1
18.0	0.1	O=C1C2C3C=CC(C3)C2C(=O)N1CCN1CCN(S(=O)(=O)c2cccs2)CC1 (stereo unspecified)
·	1.4	NNc1ccc(C(F)(F)F)cn1
28.0	·	O=C1CCC(=O)N1CN(Cc1ccccc1)CN1C(=O)CCC1=O
-23.0	0.7	CCCn1c(/N=C/c2ccccc2Cl)nc2ccccc21
-2.0	·	Cc1ccc(-n2cc(C(C)(C)C)[nH]c2=S)cc1
3.0	1.9	CC(O)(C#CC12CC3CC(CC(C3)C1)C2)c1cccs1 (stereo unspecified)
-3.0	1.1	CCOC(=O)c1c(NC(=O)c2nc3n(n2)C(C(F)F)CC(C)N3)sc2c1CCCC2 (stereo unspecified)
9.0&-11.0	-3.2	Nc1nnc(-c2ccccc2)c(-c2ccccc2)n1
17.0	·	Fc1ccc(-c2nnc(SCc3ncc(-c4ccccc4)o3)n2CC2CCCO2)cc1 (stereo unspecified)
